D2 potentiator: human D2 receptor positive allosteric modulation; AID 624464; 360,000 tested, 0.23% active; potentiation, % (concentration not given with the values); DiscoveRx D2 beta-arrestin cells, luminescence, 90 min; 100% = 57 uM dopamine signal; P14416; active = potentiation of 50% or more; inconclusive = 30% to 50%; inactive = 30% or less;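 also: compound concentration not given in the record; tested on top of an EC20 dose of dopamine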
Target sequence (P14416 whole entry, looked up): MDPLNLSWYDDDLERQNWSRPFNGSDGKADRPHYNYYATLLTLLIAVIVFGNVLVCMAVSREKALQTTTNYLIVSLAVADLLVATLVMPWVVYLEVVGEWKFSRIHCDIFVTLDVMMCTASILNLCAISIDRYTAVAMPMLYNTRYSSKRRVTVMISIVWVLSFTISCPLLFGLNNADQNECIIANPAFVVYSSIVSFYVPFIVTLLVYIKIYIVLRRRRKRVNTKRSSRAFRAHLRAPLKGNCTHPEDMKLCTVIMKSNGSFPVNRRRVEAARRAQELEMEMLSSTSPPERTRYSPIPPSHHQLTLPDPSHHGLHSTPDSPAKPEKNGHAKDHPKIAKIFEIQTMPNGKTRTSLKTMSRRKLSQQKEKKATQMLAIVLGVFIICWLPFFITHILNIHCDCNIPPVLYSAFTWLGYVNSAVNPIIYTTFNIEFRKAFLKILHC
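D2 cells co-treated with compound plus 50 nM dopamine (EC20) for 90 min at 37 deg C to detect potentiation. Beta-arrestin recruitment was read as enzyme-fragment luminescence after 1 h at ambient temperature. Full response was set by 57 uM dopamine.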
PINK1 expr mod: modulators of PINK1 expression | Potency, µM (highest dose often 76.6 µM), without a hit: at the highest dose activation (PINK1 increase), usual class: activators | 410,000 tested, 0.2% active | AID 624263 | PINK1 immunofluorescence, high-content cytometry, 24 h; active = well fitted activation curve with a large enough effect; inconclusive = small, poorly fitted or top-dose-only effect; inactive = flat fitted curve, though single readings scatter; cell line not stated here;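 also: potency is read from the fitted curve at half-maximal effect; % of control where 0% means no effect; nearly all actives have a fitted effect of over 65% in size; a mitochondrial uncoupler was the plate control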
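Cells are seeded, rested 12 hours, then given compound at five concentrations or DMSO for 24 hours. After fixation, blocking and antibody staining, PINK1 amount and mitochondrial localization are scored; CCCP serves as control.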
Six1-Eya2 inh: blocks human Six1 binding to Eya2. AlphaScreen GST-Six1/His-Eya2 binding, biochemical; stronger effect = lower value; control for the full effect not named in the record. 360,000 tested, 0.56% active. Q15475+O00167. activity change, % (no concentration beside the values); in the data active = activity change below about -65%; inconclusive = about -30% to -65%; inactive = above about -30%; also: % is scaled to controls: 0 for no effect and ±100 for the full control effect; compound concentration not given in the record
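GST-Six1 + His-Eya2 (5X stock: 250/500 nM); Tris pH 8.0, 300 mM NaCl, 0.05% BSA, 0.02% Tween 20; GSH donor/Ni acceptor beads; 1 h 37 °C dark; AlphaScreen readout.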
TRPML1 agonist: activates the human TRPML1 channel; Q9GZU1; TRPML1-expressing cells, Ca2+ dye fluorescence, FDSS; host cell line not named in the record; reference of the full effect not given here; activation, % (test concentration not listed); 410,000 tested, 0.12% active; AID 624414; in the data active = activation above about 50%; inconclusive = about 30% to 50%; inactive = below about 30%; also: 0% is about no effect; the text of the record puts the active cut at 80%
Target sequence (Q9GZU1 whole entry, looked up): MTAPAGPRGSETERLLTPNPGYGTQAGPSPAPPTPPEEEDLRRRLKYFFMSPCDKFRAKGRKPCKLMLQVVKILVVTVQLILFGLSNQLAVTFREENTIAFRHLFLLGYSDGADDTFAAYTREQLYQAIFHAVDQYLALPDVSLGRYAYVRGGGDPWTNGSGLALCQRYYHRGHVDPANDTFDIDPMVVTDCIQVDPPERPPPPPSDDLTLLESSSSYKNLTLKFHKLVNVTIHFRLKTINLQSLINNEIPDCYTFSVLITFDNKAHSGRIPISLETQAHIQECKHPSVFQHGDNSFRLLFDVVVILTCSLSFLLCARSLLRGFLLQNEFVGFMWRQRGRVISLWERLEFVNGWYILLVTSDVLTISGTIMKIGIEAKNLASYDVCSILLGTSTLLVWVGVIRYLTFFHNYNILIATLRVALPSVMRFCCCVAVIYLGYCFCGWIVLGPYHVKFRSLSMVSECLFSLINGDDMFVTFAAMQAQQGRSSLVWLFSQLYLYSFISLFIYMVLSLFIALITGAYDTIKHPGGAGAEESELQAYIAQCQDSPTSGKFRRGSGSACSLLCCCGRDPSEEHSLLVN
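Tetracycline-induced TRPML1-DL cells are seeded and incubated overnight before loading with a no-wash Ca2+ dye and quencher. Agonist activity is taken from the 110 s fluorescence read following compound pin-transfer on an FDSS, before EC80 54-4 challenge.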
D2 ag: human D2 receptor agonism in beta-arrestin assay | P14416 | DiscoveRx PathHunter D2 beta-arrestin, luminescence, 90 min; 100% = 57 uM dopamine signal | activation, % (no concentration beside the values) | 360,000 tested, 0.084% active; in the data active = activation above about 40%; inconclusive = about 15% to 40%; inactive = below about 15%; also: compound concentration not given in the record; the text of the record calls up to 30% inactive
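Agonist mode: compounds alone added to overnight-plated D2 PathHunter cells for 90 min at 37 C, with 57 uM final dopamine (EC100) defining full response. Beta-arrestin recruitment detected by chemiluminescent reagent, read after 1 h at ambient temperature.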
TRPML1 blocker: human mucolipin-1 channel inhibition; TRPML1-inducible cells, Ca2+ dye fluorescence, FDSS; stronger effect = lower value; inhibition of EC80 agonist-evoked calcium signal; activity change, negative = inhibition, % (test concentration not listed); 390,000 tested, 0.02% active; AID 624415; in the data active means activity change below about -50%; inconclusive means about -30% to -50%; inactive means above about -30%;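 also: stimulus is agonist 54-4 at its EC80 concentration; % is scaled to controls: 0 for no effect and ±100 for the full control effect; compound concentration not given in the record; the text of the record puts the active cut at -80%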
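Tet-induced TRPML1-DL cells loaded with Ca8 no-wash calcium dye were read kinetically on FDSS. Compound addition was followed by EC80 agonist 54-4 (4 uM final); inhibition was read over 110 s.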
Starred values were filed as active, the others as inactive; ? = inconclusive; . = not tested or not shown; & = joins results of further samples; [ ] = another dose, or the depositor's remark.

No.	Molecule	D2 potentiator	PINK1 expr mod	Six1-Eya2 inh	TRPML1 agonist	D2 ag	TRPML1 blocker
1	N#CC(=C1SC=CS1)c1nc(-c2ccccc2)cs1	-8	15%	?	-0.2	-5.1	9
2	CC(C)(C)OC(=O)C[C@@H]1C/C=C\C[C@H](CC(=O)N(CCO)Cc2ccccc2)C(=O)NC[C@@H](c2ccccc2)OC1=O	-43	0.9%	-9	-0.7	-15	-11
3	C=C1CCN([C@H](C(=O)OCc2ccc(C)cc2)C(C)C)S(=O)(=O)c2ccccc21	-6	1.7%	3	6.2	-2.3	-13
4	COc1cc(CNC(=O)C2CC2)ccc1OCc1ccccc1	-9	?	6	0.0	-5.4	-6
5	COc1cc(NC(=O)CN2CCCN(S(=O)(=O)c3ccc(F)cc3)CC2)cc(OC)c1	.	-0.3%	.	0.0	.	8
6	CC(C)(C)c1ccc(C(=O)NN2CCOCC2)cc1	-6	1.7%	4	0.2	3.6	23
7	Cc1ccccc1-c1nnc(CN2CCC(C)CC2)o1	-24	2.0%	1	1.4	-2.7	-7
8	Cc1ccc(N2C(=O)c3ccccc3C2Nc2ccccc2F)nc1 (configuration not stated)	-1	0.1%	1	2.3	-0.5	36
9	COc1ccc(C(=O)N2N=C(c3cccc(NS(C)(=O)=O)c3)CC2c2cccs2)cc1 (configuration not stated)	12	1.5%	-6	1.0	3.5	-1
10	CN(C)c1ccc(/C=C2\Oc3ccc(C#Cc4cccc(N)c4)cc3C2=O)cc1	-7	6.4%	17	?	-4.3	-5
11	Cc1cc(C)n(-c2ccc(Cl)c(C(=O)O)c2)n1	7	-0.3%	-8	1.7	-1.2	-5
12	COc1ccc(C(=O)OCC(=O)NC(C)CCc2ccccc2)cc1 (configuration not stated)	-5	0.7%	-16	-0.4	1.8	14
13	CCc1ccc(NC(=O)N2CCN(Cc3nc4ccc(C)cc4o3)CC2)cc1	.	0.8%	.	-0.2	.	-13
14	COc1ccc(NC(=O)CN(C)C(=O)c2ccc(COc3ccccc3)o2)cc1	4	-0.4%	8	-0.1	-2.8	6
15	CCOC(=O)c1sc(-c2cccs2)nc1C	-6	2.3%	48	-1.4	-3.0	-6
16	CC(CC(=O)N1CCN(c2ccccc2F)CC1)c1ccccc1 (configuration not stated)	5	-0.8%	21	0.2	-0.2	-1
17	CCn1c(SCC(=O)NCc2ccco2)nc2c1c(=O)n(C)c(=O)n2C	-1	5.7%[38.3 µM]	0	0.4	-3.0	6
18	Cc1ccc(C2C=C(c3ccc(Cl)cc3)Nc3nc(NC(=O)c4ccco4)nn32)cc1 (configuration not stated)	.	-0.5%	.	17	.	23
19	CSc1nc(N)nc2c1ncn2CC(=O)NCC1CCCO1 (configuration not stated)	-2	0.8%	0	-1.0	-2.2	12
20	COC(=O)Cn1nc(C)c2c(C)n(-c3ccccc3)nc2c1=O	.	-0.5%	.	-0.4	.	-8
21	COC(=O)c1cc(S(=O)(=O)NCC2CCN(Cc3ccc(C)cc3)CC2)c[nH]1	-22	2.4%&0.8%	2	-0.2&-0.2	-4.2	-1&2
22	Cc1cc(N)n(Cc2cccs2)n1	1	0.4%	0	1.3	-3.7	-14
23	Cc1cnccc1CNC(=O)CC1C(=O)NCCN1CC(C)(C)C (configuration not stated)	4	-0.3%	-2	-0.1	-5.8	31
24	Cc1ccccc1-n1cc(-c2ccccc2)nc1SCC(=O)Nc1ccc(F)cc1	.	1.3%	.	-0.5	.	11
25	COC(=O)c1cc2ccccc2n1Cc1ccc(Cl)nc1	-14	0.5%	18	0.6	-4.4	54
26	Cc1ccccc1NC(=O)c1ccc(NC(=O)c2ccco2)cc1	-12	?	-2	2.2	1.6	-6
27	CC(C)CNC(=O)CC(=O)N/N=C/c1ccc(F)cc1	-3	1.2%	0	-0.1	-3.0	5
28	COC(=O)[C@H](Cc1c[nH]c2ccccc12)NCc1cccc(B(O)O)c1	.	-0.9%	-1	0.5	-2.4	-9
29	Cc1[nH]c2ccccc2c1Cc1nnc(SCc2ccccc2)o1	0	-1.7%	-17	4.7	0.6	25
30	CN1C(=O)c2ccccc2C(C(=O)NCc2ccco2)C1c1c[nH]c2ccccc12 (configuration not stated)	1	-1.1%	?	0.1	-1.8	-15
31	O=C(CSc1nnc(-c2ccc(C(F)(F)F)cn2)o1)Nc1cccc(Cl)c1	-11	2.0%	-71*	0.7	-4.1	-4
32	Cn1c2c(c(=O)n(C)c1=O)C1c3cc(Cl)ccc3OCC1CO2 (configuration not stated)	9	0.3%	0	-0.7	0.0	-4
33	COc1cccc(C2CC(=O)Nc3cc4c(cc32)CCC4)c1 (configuration not stated)	-4	13%	-7	0.7	-6.7	27
34	CC(=O)c1cccc(NC(=O)N2CCC(NC(=O)C3CCCCC3)CC2)c1	-9	5.7%	0	-0.5	-5.5	24
35	CCCN(CCC)S(=O)(=O)c1ccc2c(c1)N(CC(=O)NCc1ccc(F)cc1Cl)C(=O)CS2	.	1.6%	.	1.1	.	-9
36	Cc1cc(C)c(S(=O)(=O)N2CCCCC2CCNC(=O)C(=O)NCc2ccco2)c(C)c1 (configuration not stated)	-6	1.8%	-5	3.4	0.5	28
37	COc1ccccc1CC(=O)Nc1cccc(C(=O)NN2C(=O)c3ccccc3C2=O)c1	3	-0.5%	-2	0.4	-0.8	-9
38	O=C(NCc1ccco1)C(c1cccnc1)N(C(=O)Cn1nnc2ccccc21)c1ccccc1 (configuration not stated)	-9	2.4%	-8	-0.4	-1.9	-13
39	Cc1cccc(C(=O)Nc2oc(-c3ccccc3)cc2C#N)c1	-47	18%	2	1.3	-5.8	-12
40	C[C@@H]1CN([C@@H](C)CO)C(=O)c2cc(Br)cnc2O[C@H]1CN(C)C(=O)CN1CCOCC1	4	0.6%	5	0.0	-1.4	-9
41	O=c1ccc2cc(S(=O)(=O)NCc3ccccc3)ccc2[nH]1	-2	0.4%	1	0.1	-7.3	9
42	CCOC(=O)/C(C#N)=C1/C=CNC(=O)N1	-11	3.0%[38.3 µM]	-3	2.9	-3.7	3
43	O=C(NNc1cccc(Cl)n1)Nc1cccc(Cl)c1	15	2.4%	-2	0.9	0.3	38
44	O=C(CNC(=O)c1cccc(Br)c1)N/N=C/c1cccnc1	-19	2.1%	-1	-0.7	-3.1	-2
45	CC(C)(C)C(=O)Nc1c(Cl)cccc1OC(F)(F)F	-2	-1.1%	-10	-0.3	-1.1	13
46	O=C(NNC(=O)C1CCCC1)c1cc([N+](=O)[O-])cc([N+](=O)[O-])c1	9	-0.2%	0	-0.8	5.8	12
47	CCCOc1ccc(-c2nc(SCc3ccccc3)[nH]c(=O)c2C#N)cc1OC	-4	6.7%	-2	2.4	-1.0	30
48	Cc1ccc(-n2nc(C)c(C(=O)NCCCN3CCN(c4ccc(F)cc4)CC3)c2-n2cccc2)cc1	.	-0.3%	.	1.6	.	-11
49	O=c1[nH]n(-c2ccc([N+](=O)[O-])cc2)c(=O)c2ccccc12	15	0.7%	-25	-0.2	5.3	-7
50	Cc1cc(C(=O)O/N=C(\N)c2ccc(C(C)(C)C)cc2)no1	1	2.0%	8	0.9	7.2	17
51	COc1cc(OC)cc(-c2nnc(NC(=O)c3ccc4c(c3)OCCO4)o2)c1	0	1.5%	-1	-0.5	6.9	-6
52	CC(C)N(C(=O)[C@H]1C[C@H](CC(=O)NCc2cccc(C(F)(F)F)c2)C(=O)N2CCc3c([nH]c4cc(-c5ccco5)ccc34)[C@]12C)C(C)C	2	2.6%	-17	1.6	0.4	-10
53	OCC[C@@H]1C[C@@H](O)[C@H](O)[C@@]2(CCc3ccccc3CO2)O1	-4	1.0%	7	0.0	-1.6	-15
54	CC(=O)c1sc(N/N=C\c2cccc(Br)c2)nc1C	92*	21%	2	0.8	?	-14
55	Cc1nc2sc(C(=O)Nc3ccccc3Cc3ccccc3)c(C)c2c(=O)[nH]1	-12	7.7%	8	-0.4	-4.9	32
56	CCC(=O)NC(Cc1ccccc1)c1ccc2c(c1)OCCCO2 (configuration not stated)	-1	-0.4%	10	-0.6	-0.7	52

Only TRPML1 blocker, PINK1 expr mod and Six1-Eya2 inh, for two of the compounds above:
No.	molecule	TRPML1 blocker	PINK1 expr mod	Six1-Eya2 inh
56	CCC(=O)NC(Cc1ccccc1)c1ccc2c(c1)OCCCO2 (configuration not stated)	52	-0.4%	10
50	Cc1cc(C(=O)O/N=C(\N)c2ccc(C(C)(C)C)cc2)no1	17	2.0%	8

Next part:
No.	Molecule	D2 potentiator	PINK1 expr mod	Six1-Eya2 inh	TRPML1 agonist	D2 ag	TRPML1 blocker
57	COc1cc(NC(=O)Cn2cnc3c(OCc4ccccc4)ncnc32)cc(OC)c1OC	13	1.9%	-17	0.1	-1.3	28
58	O=C(CCCOc1ccccc1)NN1C(=O)NC2(CCCCC2)C1=O	13	-1.3%	-3	-0.1	0.1	17
59	COc1ccc(N2CCN(C(=O)CCS(=O)(=O)c3cc4c(cc3Cl)NC(=O)CO4)CC2)cc1	.	1.5%	.	0.6	.	2
60	O=S(=O)(Nc1ccc(C(F)(F)F)cc1)c1cccs1	-9	0.7%	11	-0.7	-3.3	-2
61	COCCn1c(=O)[nH]c(=O)c2c(C(F)(F)F)cc(-c3cccs3)nc21	0	3.8%	-3	-0.5	-6.2	-5
62	CC(C)[C@H](NC(=O)OCc1ccccc1)C(=O)OCC(=O)Nc1c(F)cccc1F	-2	0.8%	0	5.2	-0.5	24
63	O=C(COC(=O)CCNS(=O)(=O)c1ccc(Cl)cc1)NCc1ccccc1	-10	0.2%	4	-0.7	-1.9	-2
64	COc1cccc(OCC(=O)O)c1	3	4.0%	22	-0.5	-0.3	-1
65	COc1ccc(CCCc2nnc(SCC(=O)Nc3ccc(C)cc3)o2)cc1	.	2.1%	.	2.0	.	54
66	COc1ccc(N2C(=O)N(Cc3ccc(C)cc3)c3ccccc3S2(=O)=O)cc1	-12	1.8%	1	1.4	-4.4	31
67	CCCC(C)C(=O)Nc1ccc(S(=O)(=O)Nc2nccc(C)n2)cc1 (configuration not stated)	-1	3.8%	4	-0.8	-4.1	5
